# KCNQ2 enhance = potentiators of rat KCNQ2 potassium channel; O88943; CHO-K1 KCNQ2, FluxOR thallium flux fluorescence; hits give high values; B-score at 10 µM; actives 0.54% (n = 310,000);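 active = fluorescence ratio B-score at least 3 SD of library B-scores, with initial fluorescence B-score within 3 SD, cut at about 5.3 in these data; same plate scores as AID 2156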;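 also: B-score of peak minus minimum over baseline fluorescence ratio after K+ and Tl+ stimulus; positive B-score means potentiation of KCNQ2 with more thallium influx and brighter signal; only the inactives scoring about 0 or higher are listed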
# Target sequence (O88943 whole entry, looked up): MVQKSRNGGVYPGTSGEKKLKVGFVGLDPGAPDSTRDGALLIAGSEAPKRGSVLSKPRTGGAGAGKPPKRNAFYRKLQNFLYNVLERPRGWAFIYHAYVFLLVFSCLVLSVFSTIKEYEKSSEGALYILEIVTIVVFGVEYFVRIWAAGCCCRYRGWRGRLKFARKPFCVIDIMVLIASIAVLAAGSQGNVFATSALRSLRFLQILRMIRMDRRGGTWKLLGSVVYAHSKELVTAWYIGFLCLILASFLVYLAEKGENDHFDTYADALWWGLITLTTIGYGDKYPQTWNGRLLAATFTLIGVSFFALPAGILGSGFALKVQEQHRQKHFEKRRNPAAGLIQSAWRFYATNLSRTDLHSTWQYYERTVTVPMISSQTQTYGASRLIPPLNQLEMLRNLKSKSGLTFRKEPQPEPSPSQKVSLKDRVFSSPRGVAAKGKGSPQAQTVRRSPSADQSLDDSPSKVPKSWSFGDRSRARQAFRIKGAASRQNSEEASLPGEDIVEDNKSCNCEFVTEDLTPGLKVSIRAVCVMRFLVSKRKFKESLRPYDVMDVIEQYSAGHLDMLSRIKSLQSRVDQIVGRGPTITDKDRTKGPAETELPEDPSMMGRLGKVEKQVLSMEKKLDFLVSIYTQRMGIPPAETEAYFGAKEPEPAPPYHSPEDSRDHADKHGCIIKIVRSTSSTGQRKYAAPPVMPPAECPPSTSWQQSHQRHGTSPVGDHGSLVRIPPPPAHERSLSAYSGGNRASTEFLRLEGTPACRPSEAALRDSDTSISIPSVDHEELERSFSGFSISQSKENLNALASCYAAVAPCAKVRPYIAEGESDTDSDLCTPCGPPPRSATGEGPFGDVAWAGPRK
# KCNQ2 enhance baseline = further read-out of KCNQ2 enhance, marked with its call; B-score; compound at 10 µM; measured here: initial fluorescence intensity artifact check;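 brightness before thallium and not channel activity; 0 = typical well and far values either way flag optical interference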
# An asterisk follows results filed as active.
# Below each SMILES: KCNQ2 enhance, KCNQ2 enhance baseline
> CC(=O)c1cccc(NC(=O)Nc2csc3c2CCCC3)c1
  0.21, -0.02
> Cc1cc2c(SCC(=O)NC3CCCC3)ncnc2s1
  0.2, 1
> CCOC(=O)N1CCC(NS(=O)(=O)c2ccc3c(c2)C(C)(C)C(=O)N3C)CC1
  0.26, -0.77
> CCC(CC)C(=O)Nc1c2cnn(-c3ccccc3)c2nc(=O)n1-c1ccccc1
  1, -0.24
> Cc1nc(NCc2ccco2)c(C#N)c2c1COC(C)(C)C2
  0.02, 1.7
> CCN1CCc2nc3sc(C(=O)Nc4cccnc4Cl)c(N)c3cc2C1
  0.91, -0.04
> Cc1c(NC(=O)C(=O)/C=C(/O)c2ccccc2)c(=O)n(-c2ccccc2)n1C
  0.2, -0.32
> CCCn1c2ccccc2c2cnn(CC(=O)NCCOC)c(=O)c21
  1.2, 1.5
> O=C(O)c1ccc(Oc2ccc(S(=O)(=O)c3ccc(C(=O)O)c(C(=O)O)c3)cc2)cc1
  0.9, -1.2
> COc1ccc(Cl)cc1C(=O)N1CCN(Cc2ccc3c(c2)OCO3)CC1
  1.2, 0.28
> Cc1ccc(NC(=O)CN2C(=O)S/C(=C\c3cccn3C)C2=O)cc1
  0.73, 0
> COc1ccc(C(C)=O)cc1COC(=O)CSC(C)C(=O)Nc1cc(C)on1 (stereo not drawn)
  1.1, -0.09
> COc1ccc(NS(=O)(=O)c2ccc(NS(=O)(=O)c3ccc(SC)cc3)cc2)c(OC)c1
  0.67, 1.4
> COc1ccc(-n2nc3c(c2NC(=O)COc2ccccc2)CS(=O)(=O)C3)cc1
  0.88, 0.17
> COc1ccc(NC(=O)c2ccco2)cc1NC(=O)c1c(F)c(F)c(OC)c(F)c1F
  0.34, 1.4

# Remaining list, next part:
# Below each SMILES: KCNQ2 enhance, KCNQ2 enhance baseline
> COc1ccc(OCC(O)CNC(C)c2ccccc2)cc1 (stereo not drawn)
  0.41, -0.07
> CCOc1cc(C2C3=C(CC(C)(C)CC3=O)N(C)C3=C2C(=O)CC(C)(C)C3)ccc1O
  0.2, 2.4
> Cc1nn(C)c(C(=O)NNC(=O)NC2CCCCC2)c1Cl
  1.3, 1.9
> CCN(CC)CCNC(=O)c1ccc(Cl)c(S(=O)(=O)Nc2ccc(Cl)cc2)c1
  0.76, 1.4
> CCN(CC)C(=O)C1CCN(S(=O)(=O)c2cccc3nonc23)CC1
  0.08, 0.17
> Cc1ccc2nc(NC(=O)C3CCN(c4ncnc5sc(C)c(C)c45)CC3)sc2c1
  0.5, 0.84
> O=C(CN1CCN(c2ccc(F)cc2)CC1)Nc1ccc2c(c1)OCCO2
  0.05, 0.14
> COc1ccc(C2CC(c3ccccc3)=NN2c2ccc(S(N)(=O)=O)cc2)cc1 (stereo not drawn)
  1.4, 1.1
> COc1ccc2c(c1)CCc1c(C(=O)NCC(C)C)noc1-2
  0.26, 0.13
> CNC(=S)NNC(=O)c1sc2cc(C(F)(F)F)cnc2c1-c1cccnc1
  0.75, -3.3
> O=C(NC(=S)N1CCN(C/C=C/c2ccccc2)CC1)c1ccc(F)cc1
  3.3, 1.1
> O=C(Nc1ccc(NC(=O)c2ccc3c(c2)OCCO3)cc1)c1ccccc1
  0.67, -1.5
> CC1(c2ccccc2Cl)NC(=O)N(CC(=O)Nc2ccc3c(c2)OCO3)C1=O (stereo not drawn)
  0.12, 1.4
> CCCCC(=O)NS(=O)(=O)c1ccc(N=NN2CCCCC2)cc1
  0.1, -0.75
> O=C(Nc1ccc(C(F)(F)F)cc1)c1csc(-c2ccncc2)n1
  1.3, 0.28

# Following part.
# Below each SMILES: KCNQ2 enhance, KCNQ2 enhance baseline
> COc1ccc(S(=O)(=O)NCCc2cn3nc(C)c(C)nc3n2)cc1C
  0.54, 0.19
> CCc1ccc(NC(=S)N2CCC(NC(=O)C3CCCCC3)CC2)cc1
  0.66, -0.32
> COc1ccc2nc(NC(=O)CCN3C(=O)c4ccccc4C3=O)sc2c1
  0.35, -0.19
> CC(C)(C)C(=O)Nc1ccc(-c2nc3ccccc3c(=O)o2)cc1
  0.85, -2.5
> Cc1cc(Nc2ccccc2)nn1C(=O)c1ccc([N+](=O)[O-])cc1
  1.7, -0.03
> CC1(C(=O)Nc2ccc3c(c2)OCO3)CC1(Cl)Cl (stereo not drawn)
  0.49, -0.64
> COc1cc(C(=O)NCC2CCCCC2)cc(OC)c1OC
  0.81, 0.01
> O=C1CC(N2CCOCC2)=NN1c1ccc([N+](=O)[O-])cc1
  1.7, 0.27
> CC(=O)Nc1ccc(S(=O)(=O)N2CCSC2c2ccco2)cc1 (stereo not drawn)
  1.2, 0.07
> COC(=O)C1=C[C@@H](C(=O)OC)[C@@H]2C3=C(C(=O)[C@]2(C)NC(=O)c2ccccc2)[C@H](C)n2c(=O)n(-c4ccccc4)c(=O)n2[C@@H]3C1
  0.1, 0.62
> CC(C)c1ccc(/C=N/NC(=O)c2nnn(-c3nonc3N)c2CN(C)C2CCCCC2)cc1
  1.5, -1.1
> CCCCn1nnc(NC(=O)CC23CC4CC(CC(C4)C2)C3)n1
  20*, -0.32*
> COc1cc2c(=O)n(Cc3ccccc3)c(=O)n(CC(=O)NCC3CCCO3)c2cc1OC (stereo not drawn)
  0.55, -0.09
> COc1ccc(C(C#N)N2CCC(c3ccccc3)=N2)cc1OC (stereo not drawn)
  0.08, 0.68
> CCCc1cc(C(=O)Nc2cc(OC)c(Cl)cc2OC)no1
  0.12, 0.08

# Next section
# Below each SMILES: KCNQ2 enhance, KCNQ2 enhance baseline
> C/C(=N/NC(=O)c1ccc2nc[nH]c2c1)c1cccs1
  0.21, -0.01
> O=C(CCN1C(=O)c2ccccc2C1=O)CN1CCOCC1
  0.86, 0.77
> COCCn1c(SCC(=O)N2CCCCC2)nc2ccccc2c1=O
  0.54, 0.3
> CCOC(=O)C1=C(C)Nc2ncnn2C1c1ccc2c(c1)OCO2 (stereo not drawn)
  1.2, -0.02
> O=C(NC1CCSC1=O)C1CCCCC1 (stereo not drawn)
  1.5, -0.32
> Cc1ccc(-c2csc3ncnc(Cl)c23)cc1
  0.86, 1
> O=C(NC(=S)Nc1cc(-c2nc3ccccc3[nH]2)ccc1Cl)c1ccc2c(c1)OCO2
  0.07, -0.08
> CC(/C=C/c1ccc2c(c1)OCO2)=N\NC(=O)c1cccc([N+](=O)[O-])c1
  1.3, -1.7
> COc1ccccc1-c1cc(C(F)(F)F)nc(S(=O)(=O)CCCC(=O)N2CCCCC2C)n1 (stereo not drawn)
  0.49, 1.1
> Oc1cc2ccccc2cc1-c1n[nH]c(=S)o1
  0.08, -0.22
> Cc1ccc(S(=O)(=O)N2CCOCC2)cc1C(=O)NC1CCCC1
  1.7, -1.7
> Cc1ccc(OCCSc2nnc(NC(=O)c3ccco3)s2)cc1
  0.37, -0.29
> COc1ccc(C(N)=S)c(OC)c1
  0.35, -0.12
> CCOc1ccc(N2C(=O)Nc3ccccc3C2(O)C(=O)NCc2ccc3c(c2)OCO3)cc1 (stereo not drawn)
  1.6, 0.25
> Cc1cc2c(c(=O)o1)C(Cc1ccccc1)C(C#N)=C(N)O2 (stereo not drawn)
  0.67, -0.47

# Two of these compounds in another layout:
canonical_smiles | KCNQ2 enhance | KCNQ2 enhance baseline
Cc1ccc(S(=O)(=O)N2CCOCC2)cc1C(=O)NC1CCCC1 | 1.7 | -1.7
O=C(NC1CCSC1=O)C1CCCCC1 (stereo not drawn) | 1.5 | -0.32

# Additional entries follow.
# Below each SMILES: KCNQ2 enhance, KCNQ2 enhance baseline
> O=C(Nc1ccccc1)Nc1nnc(SCc2ccc(Cl)cc2)s1
  0.75, -0.8
> CCOC1=NS(=O)(=O)c2ccccc21
  0.41, -0.58
> COc1ccccc1CNC(=O)CSC(=S)N1CCCC1
  0.17, 0.07
> O=C(Cn1cc(C(=O)c2cccs2)c2ccccc21)NCc1ccc2c(c1)OCO2
  0.58, 0.23
> CCN(Cc1ccccc1)S(=O)(=O)c1nc2nc(C)c(C)c(C)n2n1
  2.2, -1.4
> CCC(C(=O)NCc1ccc(C)o1)n1nc(C)c2c(C)n(-c3ccccc3)nc2c1=O (stereo not drawn)
  1.3, -0.24
> NC(=O)N(CCC(=O)O)c1ccccc1
  1.6, 1.4
> CCc1ccc(Nc2nnc(SCC(=O)Nc3cccnc3Cl)s2)cc1
  1.4, -0.13
> CCC1(c2ccccc2)NC(=O)N(CC(=O)N(CC(=O)Nc2ccccc2C(F)(F)F)Cc2ccco2)C1=O (stereo not drawn)
  0.47, 0.55
> Cc1nnn(C23CC4CC(CC(C(=O)NN)(C4)C2)C3)n1
  0.03, 0.12
> CC(C)[C@H](NC(=O)NC1CCCC1)C(=O)O
  0.19, 0.82
> COc1ccccc1-n1c(SCC(=O)N2CCCC2)nnc1-c1ccccc1
  0.24, -2
> CCOc1cc(C(=O)N2CCN(c3ccc(C(C)=O)cc3)CC2)cc(OCC)c1OCC
  0.48, 0.78
> CCOC(=O)N1CCN(C(=O)COc2cccc3c2CCN(CC)C3=O)CC1
  0.33, 0.92
> COc1ccc(C(C)=O)cc1Cn1c(=O)cc(C)[nH]c1=O
  2.5, -0.42

# Remaining list, next part:
# Below each SMILES: KCNQ2 enhance, KCNQ2 enhance baseline
> CC(Oc1ccccc1)C(=O)N/N=C/c1ccccn1 (stereo not drawn)
  0.29, -0.34
> O=C(CS(=O)(=O)c1ccc(F)cc1)N1CCN(c2ccccc2)CC1
  1.8, 0.06
> CCCCn1c(N)c(N(Cc2ccccc2OC)C(=O)COc2ccccc2C#N)c(=O)[nH]c1=O
  0.08, -1.2
> CCOc1ccc(N/C(=N/c2nc(C)cc(C)n2)NC(C)=O)cc1
  2.2, -0.77
> Cc1csc(SCC(=O)Nc2sccc2C(N)=O)n1
  2.2, 0.91
> CCc1ccccc1N1C(=O)c2ccccc2S1(=O)=O
  0.65, -0.74
> O=C(CSc1nc2ccccc2c(=O)[nH]1)Nc1ccccc1O
  0.31, -0.5
> CCOCCCN(C)C1CCN(C(=O)c2oc3ccccc3c2NC(=O)c2cccc([N+](=O)[O-])c2)CC1
  1.2, 0.06
> COC(=O)C(CCSC)NC(=O)c1cccc([N+](=O)[O-])c1 (stereo not drawn)
  0.1, 2.4
> COc1cc(S(=O)(=O)NC2CC(C)(C)NC(C)(C)C2)c(OC)cc1Cl
  1.5, -0.61
> CNC(=O)c1ccccc1Nc1ccc(SC(F)F)cc1
  0.99, -0.94
> COc1ccc(CNC(=O)CN(Cc2ccccc2F)C(=O)c2csnn2)cc1
  0.73, 1.5
> C/C(=N\Nc1nncc2ccccc12)c1ccc(Cl)c([N+](=O)[O-])c1
  0.39, 0.11
> O=S(=O)(c1cccc(NC(=S)N2CCN(c3ccccc3)CC2)c1)C(F)F
  0.95, -0.99
> Nc1cc(N)nc(SCC(=O)NCCC2=CCCCC2)n1
  0.09, -0.73

# Carrying on:
# Below each SMILES: KCNQ2 enhance, KCNQ2 enhance baseline
> Fc1ccc(-n2nnc(-c3cccnc3)n2)cc1
  1.4, 0.06
> Cc1cc(C(=O)COC(=O)CN=C2NS(=O)(=O)c3ccccc32)c(C)n1CCc1ccc(Cl)cc1
  1.2, -1.6
> CC(=O)Nc1nc(C(F)(F)F)cs1
  0.44, 2
> Cc1ccccc1-n1nc(SCC(=O)O)sc1=S
  0.53, 1.1
> Cc1[nH]c(=O)[nH]c(=O)c1S(=O)(=O)N1CCC(C(=O)N2CCN(c3cccc(C(F)(F)F)c3)CC2)CC1
  0.46, -0.76
> Cn1c(SCC(=O)NNC(=O)Cc2ccccc2)nnc1-c1ccccc1
  1.1, 0
> CSc1ccccc1NS(=O)(=O)c1ccc2c(c1)OCCO2
  0.68, 2
> O=C(CNC(=O)C1COc2ccccc2O1)N/N=C\c1ccccc1Cl (stereo not drawn)
  0.12, -1.1
> CC(C)(CO)NCc1c(OCc2ccc(Cl)cc2)ccc2ccccc12
  4.6, -1.8
> O=C(NCCCO)c1ccc2[nH]c3ccccc3c2c1
  3.5, -1
> COc1cc(N2C(=O)c3ccccc3C2=O)c(Cl)cc1C(=O)OCC(=O)N(C)C
  2.4, 2
> CN=C1SC(CC(=O)Nc2cc(Cl)ccc2Cl)C(=O)N1C (stereo not drawn)
  0.05, -3
> CCOC(=O)Cc1csc(NC(=O)CCCC(=O)O)n1
  0.02, -0.5
> COc1ccc(S(=O)(=O)N2CCCCC2)cc1NC(=O)C1CSC2(C)CCC(=O)N12 (stereo not drawn)
  0.42, 1.6
> N#Cc1cc(Br)ccc1N=C1CCCN1c1ccccc1
  0.86, -0.99

# The listing continues:
# Below each SMILES: KCNQ2 enhance, KCNQ2 enhance baseline
> Cc1ccc(C)c(S(=O)(=O)N2CCN(c3ncccn3)CC2)c1
  0.12, -0.52
> CCCc1nnc(NC(=O)COc2ccc3c(c2)OCO3)s1
  2.2, -0.05
> COc1ccc(CC(NC(C)=O)C(=O)NC2CCN(S(=O)(=O)c3ccccc3)CC2)cc1OC (stereo not drawn)
  0.68, -0.03
> COc1ccc(N2CCN(C(=O)c3ccccc3Br)CC2)c([N+](=O)[O-])c1
  0.23, 0.69
> O=C(Nc1nnc(-c2ccccc2)o1)c1cc(Cl)sc1Cl
  4.4, 3.5
> COc1ccc(NC(=O)CN(c2ccc(OC)c(Cl)c2)S(=O)(=O)c2ccccc2)cc1
  0.24, 2
> CCOc1ccccc1/C=C(\C#N)C(=O)Nc1cccc(C(=O)O)c1
  0.8, -2
> CCCCCCC(=O)N/N=C1\CCCc2ccccc21
  1.8, 1.5
> CCO[C@H]1OC(C(=O)N2CCN(C)CC2)=C[C@@H](c2ccc(C(F)(F)F)cc2)[C@@H]1CCCO
  1.1, 0

# Entries of single compounds, looked up by structure:
# Shown for COc1ccc(N2CCN(C(=O)c3ccccc3Br)CC2)c([N+](=O)[O-])c1 → KCNQ2 enhance = 0.23; KCNQ2 enhance baseline = 0.69
# Shown for CCO[C@H]1OC(C(=O)N2CCN(C)CC2)=C[C@@H](c2ccc(C(F)(F)F)cc2)[C@@H]1CCCO → KCNQ2 enhance = 1.1; KCNQ2 enhance baseline = 0
# Shown for COc1ccc(NC(=O)CN(c2ccc(OC)c(Cl)c2)S(=O)(=O)c2ccccc2)cc1 → KCNQ2 enhance = 0.24; KCNQ2 enhance baseline = 2

# Screening results deposited in PubChem BioAssay by Johns Hopkins Ion Channel Center.

# This is a subset; rates above refer to the full screens.
